Bioassay records: PubChem BioAssay, National Center for Advancing Translational Sciences (NCATS)
VACV mCherry inh = qHTS for Stage-Specific Inhibitors of Vaccinia Orthopoxvirus: mCherry Reporter Primary qHTS | AID 720579, 2013 | Potency, µM (titrated, usually from 36.5 µM), without a hit: top-dose activity change, negative = inhibition, most hits filed as inhibitors | Vaccinia virus mCherry reporter infection, fluorescence; about a quarter of the inactives have no number | actives 0.63% (n = 310,000); active = well fitted inhibition curve with a large enough effect; inconclusive = small, poorly fitted or top-dose-only effect; inactive = no such curve, though single readings can be large or run the other way; tested in A549 cells; note: nearly all actives have a fitted effect of over 35% in size; inactives centre near -10
Vaccinia Venus = qHTS for Stage-Specific Inhibitors of Vaccinia Orthopoxvirus: Venus Reporter Primary qHTS. Vaccinia virus Venus reporter expression, fluorescence. Potency, µM (series often up to 36.5 µM), without a hit: at the highest dose activity change, negative = inhibition, usual class: inhibitors. actives 0.46% (n = 330,000); active means well fitted inhibition curve with a large enough effect; inconclusive means small, poorly fitted or top-dose-only effect; inactive means no such curve, though single readings can be large or run the other way; tested in A549 cells; note: nearly all actives have a fitted effect of over 30% in size; inactives centre near -10
Numbers without * were called inactive; i = inactive; ? = inconclusive; · = not tested or not shown; & = joins results of further samples; [ ] = another dose, or the depositor's remark. % is set by controls: 0 for no effect and ±100 for the full control effect; potency is the fitted concentration of half-maximal effect.

SMILES | VACV mCherry inh | Vaccinia Venus
C=C(C=O)CC1CC(O)[C@]2(C)OC3C[C@@H]4OC5C[C@]6(C)O[C@]7(C)CCC8OC9C[C@]%10(C)OC(/C(C)=C\CO)C(O)CC%10OC9CC(C)C8OC7CC6O[C@]5(C)C/C=C\C4OC3CC2O1 (some centres not stated) | i | -2%
Cc1cc(C)c2c(=N)c3ccccc3n(CCCCCCCCn3c4ccccc4c(=N)c4c(C)cc(C)nc43)c2n1 | 10µM* | 10µM*
COC(=O)c1ccc(CNC(=O)C(C)N=C2NS(=O)(=O)c3ccccc32)cc1 (configuration not stated) | -13% | -10%
CSc1ccc(CN2CCN(S(=O)(=O)Cc3ccccc3)CC2)cc1 | i | -11%
CC(=O)Nc1ccc(N(C(=O)c2ccco2)C(C(=O)NC2CCCC2)c2ccncc2)cc1 (configuration not stated) | -16% | -3%
Cn1c(C(=O)OCC(=O)NCCc2ccccc2)cc2sccc21 | -5% | -2%
Cc1ccc(NC(=O)CN2C(=O)C(c3ccc(C)cc3)=NC23CCCCCC3)cc1 | -20% | -21%
CCCCCNC(=O)c1c[nH]c2ccc(S(=O)(=O)N3CCC(C)CC3)cc2c1=O | ? | -22%
COc1ccc(OC)c(CCNC(=O)C2CCN(c3nnc(-n4cccc4)s3)CC2)c1 | -16% | -21%
O=C(NCCc1ccc(Cl)cc1)C(=O)NCC(c1ccc2c(c1)OCO2)N1CCOCC1 (configuration not stated) | -18% | -6%
COc1ccc(C(=O)N(CCCO)Cc2cc3c(C)ccc(C)c3[nH]c2=O)cc1OC | i | -2%
Cc1nn(S(=O)(=O)c2ccc(F)cc2)c(C)c1S(=O)(=O)N1CCCCCC1 | 3% | -2%
Nc1ncnc2nc(Sc3ccc(Cl)cc3)[nH]c12 | · | 2%
Cc1nn(C(=O)c2cccc(F)c2)c(C)c1S(=O)(=O)N1CCOCC1 | -7% | -8%
O=C(/C=C/c1cccc(F)c1)Nc1ccc(S(=O)(=O)Nc2ncccn2)cc1 | ? | -9%
N#Cc1cnn(-c2cc(Cl)ccc2Cl)c1N | -4% | -14%

An excerpt from above in order of number of heavy atoms, descending.
SMILES | VACV mCherry inh | Vaccinia Venus
O=C(NCCc1ccc(Cl)cc1)C(=O)NCC(c1ccc2c(c1)OCO2)N1CCOCC1 (configuration not stated) | -18% | -6%
Cc1nn(S(=O)(=O)c2ccc(F)cc2)c(C)c1S(=O)(=O)N1CCCCCC1 | 3% | -2%
N#Cc1cnn(-c2cc(Cl)ccc2Cl)c1N | -4% | -14%

(cont.)
SMILES | VACV mCherry inh | Vaccinia Venus
COc1ccc(-n2c(=O)c3ccccc3n(Cc3ccccc3C)c2=O)c(OC)c1 | -18% | -18%
Cc1cc2ccccc2n1CCNC(=O)c1ccc(S(=O)(=O)N2CCCCC2)cc1 | ? | -6%
COc1ccccc1-n1cnnc1SCC(=O)N1CC(=O)Nc2ccccc21 | · | -9%
CCCCC(CC)CNC(=O)CN(C)S(=O)(=O)c1ccc2c(c1)c(=O)n(C)c(=O)n2C (configuration not stated) | ? | ?
O=C(COC(=O)c1c[nH]c2ccccc12)Nc1ccccc1 | -17% | -11%
NS(=O)(=O)c1ccc(NC(=O)COC(=O)c2cc(Cl)ccc2[N+](=O)[O-])cc1 | -15% | -14%
CCN(CC)c1ccc(CNc2nc3ccccc3n2CC)cc1 | ? | -21%
Nc1nccnc1C(=O)OCC(=O)c1ccc[nH]1 | -6% | -7%
Cc1cnc(C(=O)N2CCOc3ccc(CN4CCCC(C(=O)c5cccnc5)C4)cc3C2)[nH]1 (configuration not stated) | -6% | -9%
NC(=O)c1ccsc1NC(=O)COC(=O)CNC(=O)c1ccc(Cl)cc1 | -2% | -10%
CC(C)c1ccc(NC(=O)[C@@H](C)NC(=O)[C@@H]2Cc3ccccc3CN2)cc1 | -6% | -11%
COCCNC(=O)C(c1ccc(C)cc1)N(C(=O)CCC(=O)Nc1ccccn1)c1ccc(F)cc1 (configuration not stated) | -1% | -9%
O=C(Nc1ccc2nc(SCC(=O)N3CCCC3)sc2c1)c1ccccc1F | -24% | -21%
CC(=O)c1ccc(NC(=O)COCc2cc(-c3ccco3)on2)cc1 | -3% | -12%
CC1OC(=O)C(C(C)C)NC(=O)C(C(C)C)OC(=O)C(C(C)C)NC(=O)C(C)OC(=O)C(C(C)C)NC(=O)C(C(C)C)OC(=O)C(C(C)C)NC(=O)C(C)OC(=O)C(C(C)C)NC(=O)C(C(C)C)OC(=O)C(C(C)C)NC1=O (configuration not stated) | -77%[13.8 µM] | ?
COc1cc(C)c(C(=O)Oc2cc(C)c(C(=O)O)c(O)c2C)c(OC)c1C | -22% | 0%&-29%
COc1ccc2[nH]c(=O)c(C3c4cc(OC)c(OC)cc4CCN3C(=O)c3ccco3)cc2c1 (configuration not stated) | -9% | 1%
CCCC(=O)N(C)c1ccc(/C=C2\C=Cc3ccccc32)cc1 | ? | -23%
CCCCN(CC)C(=O)c1nn(C)c2c1CSc1ccccc1-2 | -12% | -6%
CCC(=O)N1CCc2cc(S(=O)(=O)NC(C(=O)Nc3ccc(C(C)=O)cc3)C(C)C)ccc21 (configuration not stated) | -8% | 5%
COc1ccc(P(=O)(COc2ccc([N+](=O)[O-])cc2)c2ccc(OC)cc2)cc1 | -16% | -7%
Cc1sc2nc3ccc(N4CCCC4)nn3c(=O)c2c1C | ? | ?
CC(=O)Nc1ccc(NC(=O)CSc2nnc(NC(=O)c3ccco3)s2)cc1 | i | -9%
COc1cccc(CN2CCN(Cc3nc4c(s3)CCCC4)CC2CCO)c1 (configuration not stated) | -21% | -18%
Cc1oc2ccc(O)c(CN3CCN(C)CC3)c2c1C(=O)Nc1ccc(C(C)C)cc1 | -8% | -9%
COc1cccc2sc(Nc3nc(-c4ccncc4)cs3)nc12 | ? | -29%
COc1ccc(C(=O)CCC(=O)Nc2ccc(OC)c(Cl)c2)cc1 | -11% | -10%
Cc1cc(C)c2nc(N3CCCC(C(=O)NC4CCCC4)C3)sc2c1 (configuration not stated) | i | -10%
Nc1cccc(S(=O)(=O)NC2=NCCC2)c1 | -14% | -2%
Cc1ccc(NC(=S)NC(NC(=O)C(C)(C)C)C(Cl)(Cl)Cl)c(C)c1 (configuration not stated) | i | -24%
COc1cccc(CNS(=O)(=O)c2cnc(N)nc2)c1 | -16% | -12%
CC1CN(S(=O)(=O)c2ccc3c(c2)NC(=O)CC(=O)N3)c2ccccc2O1 (configuration not stated) | -20% | -13%

Whole records, quoted from the list.
Profile of COc1cccc(CN2CCN(Cc3nc4c(s3)CCCC4)CC2CCO)c1 (configuration not stated) = VACV mCherry inh = -21%; Vaccinia Venus = -18%
Profile of COc1ccccc1-n1cnnc1SCC(=O)N1CC(=O)Nc2ccccc21 = VACV mCherry inh = ·; Vaccinia Venus = -9%
Profile of Nc1cccc(S(=O)(=O)NC2=NCCC2)c1 = VACV mCherry inh = -14%; Vaccinia Venus = -2%

(listing goes on)
SMILES | VACV mCherry inh | Vaccinia Venus
COC(=O)C[C@H]1C[C@H]2c3cc(NC(=O)CC4CC4)ccc3O[C@H]2[C@H](CO)O1 | -8% | -8%
CCC1CCCCN1C(=O)COC(=O)c1cc(Br)ccc1Cl (configuration not stated) | -3% | -13%
O=C(O)c1ccc(COc2ccccc2C=C2C(=O)c3ccccc3C2=O)cc1 | i | 60%[activator]
Cc1ccc(Cl)cc1Nc1nn2c(=O)c3ccc(C(=O)Nc4ccc(F)cc4)cc3nc2s1 | ? | ?
CC1=CCC2C(=O)N(C(C)c3ccccc3)C(=O)C2C1 (configuration not stated) | -12% | -5%
COC(=O)C1C=CC(OC2OC(COC(C)=O)C(OC(C)=O)C(OC(C)=O)C2OC(C)=O)n2c(=O)n(-c3ccccc3)c(=O)n21 (configuration not stated) | 10µM* | ?
C[C@H]1COC(=O)[C@@H](NC(=O)OCC2c3ccccc3-c3ccccc32)C/C=C\C[C@H](CC(=O)NCCO)C(=O)N1 | i | -15%
CCc1ccc(NC(=O)CNS(=O)(=O)c2c(C)noc2C)cc1 | · | -12%

Next part
Each structure is followed by: VACV mCherry inh	Vaccinia Venus
O=C(Cc1cccs1)N/N=C/C=C/c1ccccc1[N+](=O)[O-]
  -6%	?
O=C(CN1C2CCCC1CC(NC(=O)c1ccccc1)C2)Nc1ccccc1C(F)(F)F (configuration not stated)
  -1%	-25%
Cn1nnnc1SCCNCc1ccccc1OCc1ccccc1
  i	-6%
CCOC(=O)c1nn(-c2ccc(F)cc2)c2nc(Nc3ccccc3)cc(=O)n12
  -11%	-6%
COc1ccc(C2CC(c3ccc(OC)cc3O)=NN2C(=O)c2ccccc2)cc1 (configuration not stated)
  -27%	-3%
Cc1cccc(C(=O)NCc2nc3ccccc3n2Cc2ccccc2Cl)c1
  -13%	-14%
Nc1ccc([As](=O)(O)O)cc1
  i	-8%
CC(C)CCNC(=O)C1CC(c2cccc([N+](=O)[O-])c2)=NO1 (configuration not stated)
  ?	-8%
O=C(COc1ccc([N+](=O)[O-])cc1)Nc1cccc2nsnc12
  -15%	-18%
Cc1ccc(NC(=O)CNC(=O)c2ccco2)cc1
  -14%	-11%
CCN(CC(=O)NC1CCS(=O)(=O)C1)c1ccc(S(C)(=O)=O)cc1[N+](=O)[O-] (configuration not stated)
  ·	4%
O=C(CCCSc1nc2ccccc2[nH]1)N1CCN(c2ccc([N+](=O)[O-])cc2)CC1
  i	-20%
CC(=O)Nc1ccccc1-c1nc(CNC(=O)c2cccc(F)c2)c(C)o1
  i	-19%
O=C(NCc1ccc(F)cc1)c1ccc(NC(=O)C2CCCO2)cc1 (configuration not stated)
  -11%	2%
Cc1c(Br)c(O)c(Br)c(O)c1/C=N/n1c(-c2ccccc2)n[nH]c1=S
  i	-5%
CCOc1ccc(NC(=O)CSc2nc3ccsc3c(=O)n2CCC(C)C)cc1
  -17%	-25%
O=C(Cc1ccccc1)N1CCCC(c2nc(-c3ccc(S(=O)(=O)N4CCCC4)cc3)no2)C1 (configuration not stated)
  i	-3%
CCOC(=O)CC(NC(=O)CCc1c(C)nc2nc(C)nn2c1C)c1ccc(OC(C)C)cc1 (configuration not stated)
  i	-8%
CC(C)c1ccc(-n2c(O)c(/C=N/N3CCOCC3)c(=O)[nH]c2=S)cc1
  i[7.34 µM]	-3%[7.34 µM]
Cc1cc(/C=C/c2ccc3cc(N(C)C)ccc3[n+]2C)c(C)n1-c1ccccc1
  110%[activator]	·
Cc1cc(C(=O)NCCCN2CCCC2=O)cs1
  -12%	-11%
Cc1ccc2nc(-c3ccccc3)c(CC(=O)O)c(C(=O)O)c2c1
  i	-8%
O=S(=O)(c1cccc(-c2cn3cccnc3n2)c1)N1CCOCC1
  i	-4%
C[C@H](CO)N1C[C@H](C)[C@@H](CN(C)S(C)(=O)=O)Oc2ccc(N(C)C)cc2C1=O
  ?	-15%
CCc1ccccc1NS(=O)(=O)c1ccc2[nH]cc(C(=O)N(CC)Cc3ccccc3)c(=O)c2c1
  -17%	-5%
CN(C(=O)COC(=O)c1ccc(C#N)cc1)c1ccccc1
  -21%	-17%
CNC(=O)c1c(NC(=O)c2cccc(C)c2)sc2c1CCC2
  -28%	?
CCSc1cnc(-c2ccccc2)n1CC
  -9%	-3%
Cc1ccc(CNS(=O)(=O)c2ccc3c(c2)n(C)c(=O)n3C)cc1
  -27%	0%
Cn1cc(C(=O)NCCO)c(=O)c2ccccc21
  -7%	-7%
COc1ccc(CCn2c(=S)[nH]c(=O)c3nccnc32)cc1OC
  i	-20%
O=C(Cn1nc(-c2ccc(Cl)cc2)ccc1=O)NCC1CCCO1 (configuration not stated)
  -5%	-13%
O=C(CN1CCCCC1)Nc1ccc(NC(=O)c2ccccc2Cl)cc1Cl
  i	-28%
Cc1cccc(N(CC(=O)NC2CCCCC2)C(=O)c2ccc(C)s2)c1
  -16%	-13%
Cc1ccc(NC(=O)CC2Nc3cc(C)c(C)cc3NC2=O)c(C)c1 (configuration not stated)
  -15%	-10%
Cn1c(-c2cccc(Br)c2)n[nH]c1=O
  -20%	-18%
CN1CCN(/C=C(\C#N)S(=O)(=O)c2ccc(Cl)cc2)CC1
  -23%	-15%
CCOc1ccc(C(=O)NCCc2sc(-c3ccc(C)cc3)nc2C)cc1
  -19%	-13%
